# Ecoli rRNA inh: selective bacterial rRNA inhibition in E. coli. E. coli WT GFP vs humanized-ribosome RFP mutants, fluorescence, 24 h; hits give low values; DMSO median 0, no signal -100. GFP signal change (wild-type ribosome), % (concentration not given with the values). actives 1.6% (n = 350,000). AID 720706;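 active = significant combined selectivity score with lowered wild-type GFP, culture density cut under 30%, mutant RFP and density less affected; inactive = any of these conditions unmet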; note: one replicate is shown; some compounds called inactive have numbers as strong as hits
# Ecoli growth: E. coli growth inhibition | Escherichia coli growth, OD600, 23 h; hits give low values | OD600 absorbance (test concentration not listed) | actives 0.21% (n = 330,000) | AID 1053175;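 active = OD600 absorbance below the run mean of sample wells minus 3.6 SD, in any replicate, cut at about 0.56 in these data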;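 note: stock transfer was 300 nL into about 60 µL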
# UCH37 inh: human UCH37 deubiquitinating enzyme inhibition; purified proteasome/UCH37, Ub-AMC cleavage fluorescence; inhibition, % (concentration not given with the values); actives 0.33% (n = 330,000);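 active = mean of two replicates above 20%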;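 note: 0% = compound-free wells with enzyme and 100% = wells lacking proteasome; stock transfer was 100 nL into about 20 µL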
# Target sequence (Q9Y5K5 whole entry, looked up): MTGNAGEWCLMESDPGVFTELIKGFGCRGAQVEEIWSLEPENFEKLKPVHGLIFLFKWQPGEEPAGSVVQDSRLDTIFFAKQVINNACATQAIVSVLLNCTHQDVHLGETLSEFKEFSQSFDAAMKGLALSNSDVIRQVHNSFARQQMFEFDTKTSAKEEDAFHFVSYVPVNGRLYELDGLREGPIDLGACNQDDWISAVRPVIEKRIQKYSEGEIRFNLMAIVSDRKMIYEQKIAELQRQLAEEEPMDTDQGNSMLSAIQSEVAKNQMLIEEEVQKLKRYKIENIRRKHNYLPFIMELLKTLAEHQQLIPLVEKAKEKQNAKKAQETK
#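 Reagent: Ub-AMC substrate; assay system: Proteasome-associated human UCH37 deubiquitinase; controls: no-proteasome and no-compound wells; read-out: % inhibition of Ub-AMC cleavage fluorescence; timing: 30 min preincubation with enzyme, 25 min cleavage at room temperature; signal: AMC fluorescence from Ub-AMC cleavage, excitation 355 nm, emission 460 nm; buffer or medium: Tris-HCl pH 7.4 plus ovalbumin, ATP-MgCl2, DTT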
# Beta apoptosis: beta cell apoptosis inhibition. INS-1E cytokine-induced death, ATP luminescence, 48 h; percent of positive-control rescue, neutral wells zero. protection from apoptosis, % (concentration not given with the values). actives 0.8% (n = 300,000). AID 435005;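 active = all replicates at 75% or more, or half of them and the mean; inconclusive = half reach 75% but not the mean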;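 note: 0% = cytokine-treated negative control wells and 100% = positive control rescue; higher means more ATP so stronger rescue from cytokine killing; wells of about 40 µL received 100 nL stock; the first replicate is given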
# Bfl-1 A1 inh: inhibitors of the anti-apoptotic protein A1, read as caspase activation. MEF A1-2A-BIM cells, Caspase-Glo 3/7 luminescence, 3 h; percent of clofoctol response, vehicle zero. caspase activation, % (test concentration not listed). actives 0.066% (n = 330,000). AID 2462;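 active = over half of replicate activation scores above 10%, or exactly half above 10 with the replicate mean above 10; inconclusive = replicate mean below 10 yet half the replicates above 10; inactive = over half of replicates below 10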;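 note: wells of about 30 µL received 50 nL stock; many hits fall short of the cut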
# T cruzi repl: T. cruzi replication inhibition | actives 1.4% (n = 300,000) | inhibition, % (test concentration not listed) | AID 1885 | T. cruzi beta-gal in NIH3T3, luminescence, 90 h;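 active = mean inhibition across valid replicates above about 55%, limit read from the data; inconclusive = mean below that limit but half or more replicates reach it; inactive = mean below it, under half of replicates reach it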;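 note: signal also drops with host cell toxicity which is not excluded here; 0% = plate median of DMSO wells and 100% = zero luminescence signal; higher percent means less beta-gal luminescence so fewer parasites; stock transfer was 50 nL into about 50 µL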
# FGF22 binding: binders of recombinant human FGF22 by thermal shift | SYPRO orange fluorescence; percent of sucrose octasulfate shift, DMSO zero | calls only at 9.99 µM | actives 1.5% (n = 340,000) | Q9HCT0;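 active = melting point raised past a set limit in the mean and every replicate; inconclusive = no clear call; three in four hits are not shown here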
# Target sequence (Q9HCT0 whole entry, looked up): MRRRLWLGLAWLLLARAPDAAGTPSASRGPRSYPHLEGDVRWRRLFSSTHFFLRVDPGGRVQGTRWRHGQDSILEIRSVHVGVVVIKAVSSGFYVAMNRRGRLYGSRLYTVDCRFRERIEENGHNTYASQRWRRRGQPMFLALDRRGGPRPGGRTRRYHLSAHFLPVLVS
# MLL AF4-AF9 inh: MLL-AF4/AF9 protein interaction inhibition | P42568 | AlphaScreen, biotin-AF4 peptide binding to FLAG-AF9 | inhibition, % at 10 µM | actives 0.47% (n = 350,000) | AID 651704;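 active = every replicate reaching a set inhibition limit, whatever the replicate mean, cut at about 25% in these data; inconclusive = mean inhibition reaches that limit but some replicates miss it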;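 note: 0% = plate neutral control median and 100% = total signal loss; the record names both 10 and 1 µM as test concentration; the first replicate is given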
# Target sequence (P42568 whole entry, looked up): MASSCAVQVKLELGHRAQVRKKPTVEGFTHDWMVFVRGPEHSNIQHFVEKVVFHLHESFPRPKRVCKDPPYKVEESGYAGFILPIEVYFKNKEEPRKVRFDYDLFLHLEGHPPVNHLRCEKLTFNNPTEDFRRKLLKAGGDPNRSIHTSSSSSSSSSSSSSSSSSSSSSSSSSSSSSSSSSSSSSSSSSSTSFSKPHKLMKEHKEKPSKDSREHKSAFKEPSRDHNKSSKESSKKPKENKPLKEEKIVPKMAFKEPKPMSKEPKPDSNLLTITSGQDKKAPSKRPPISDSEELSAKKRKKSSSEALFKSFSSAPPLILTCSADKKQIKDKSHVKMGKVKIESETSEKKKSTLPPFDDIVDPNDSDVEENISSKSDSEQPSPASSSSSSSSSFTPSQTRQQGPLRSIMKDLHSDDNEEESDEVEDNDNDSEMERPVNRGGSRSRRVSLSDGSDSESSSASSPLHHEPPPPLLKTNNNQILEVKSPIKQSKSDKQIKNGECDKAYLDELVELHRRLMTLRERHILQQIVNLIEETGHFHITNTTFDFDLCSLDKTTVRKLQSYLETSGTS
# Ecoli rRNA inh OD600: further read-out of Ecoli rRNA inh, marked with its call; OD600 change, %; measured here: OD600 growth;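 optical density of the mix in the first replicate; 0 = DMSO median and -100 = no signal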
# Ecoli rRNA inh RFP: second read-out of Ecoli rRNA inh, no call of its own (marks repeat the call); RFP signal change, %; measured here: RFP humanized mutant strains;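 first replicate; 0 = DMSO median and -100 = no signal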
# Numbers without * were called inactive; i = inactive; ? = inconclusive; nt = not tested or not shown.
SMILES,Ecoli rRNA inh,Ecoli rRNA inh OD600,Ecoli rRNA inh RFP,Ecoli growth,UCH37 inh,Beta apoptosis,Bfl-1 A1 inh,T cruzi repl,FGF22 binding,MLL AF4-AF9 inh
CCOC(=O)CSc1nc2ccccc2c(=O)n1CCN1CCOCC1,nt,nt,nt,0.688,3.9,-4.1,-0.5,-4.9,nt,nt
O=C(O)CONC(=O)c1cc(OCC(F)(F)F)ccc1OCC(F)(F)F,nt,nt,nt,0.683,-0.4,-3.6,-0.1,-15.8,nt,nt
Cc1cccc(C)c1Nc1nnc(SCC(=O)NC(=O)c2cccn2C)s1,nt,nt,nt,0.688,0.9,-5.3,0.1,0.5,nt,nt
CC(C)N(CCn1cnc2c([nH]c3ccccc32)c1=O)C(C)C,12.5,5.0,-7.4,0.702,-18.8,-1.4,0.7,5.0,i,-0.7
CN(Cc1ccc(Br)cc1)C(=O)CCN1C(=O)c2cccc([N+](=O)[O-])c2C1=O,2.7,15.3,0.1,0.686,-1.3,-12.8,-0.8,-16.7,i,-5.5
N#Cc1ccc(Oc2ccc(-c3cnc4ccccc4n3)cc2)cc1C#N,nt,nt,nt,0.708,-9.9,1.4,-0.4,-37.6,nt,nt
CCSc1nc(C)c(CCOc2cccc(C)c2)c(=O)[nH]1,15.4,13.2,-2.9,0.693,2.3,-0.7,-0.2,20.1,i,-2.3
Clc1ccc(CNCC2CCCO2)cc1 (centres undefined),4.3,14.6,4.8,0.649,2.2,-4.4,1.4,5.6,i,-9.6
COC(=O)C1=C(C)N(Cc2ccccc2)C(=NCc2cc(OC)c(OC)c(OC)c2)N[C@H]1c1ccccc1,nt,nt,nt,nt,4.1,-3.3,3.7,17.5,nt,nt
CCOC(=O)C1CCCN(c2c(NCCc3ccc(S(N)(=O)=O)cc3)c(=O)c2=O)C1 (centres undefined),10.5,14.5,0.9,0.703,-2.4,0.9,0.3,-6.1,i,0.2
O=C(Nc1c2c(nn1-c1ccc(F)cc1)CS(=O)C2)c1ccc(Br)o1 (centres undefined),-2.3,1.8,-2.2,0.715,-0.5,-1.4,-0.7,-7.5,i,-1.9
CC(C)CN1CCN(Cc2cccn2-c2ccc(Cl)cn2)CC1CCO (centres undefined),23.6,21.9,2.1,0.684,3.9,nt,-1.1,23.9,i,1.3
CN(C)C(=O)c1cc([N+](=O)[O-])ccc1O,11.4,13.8,2.7,0.728,6.3,-0.6,1.2,-9.1,i,1.2
O=C(COc1ccc(Br)cc1CNC1CCCC1)Nc1ccccc1,-25.9,-29.2,2.8,0.647,7.4,1.3,1.5,47.1,nt,4.5
CS(=O)(=O)Nc1ccccc1C(=O)NCCSCc1ccccc1,-13.4,-15.4,-1.4,0.705,-14.9,nt,0.1,2.6,i,-2.3
CCCCCCOc1ccc(N2C(=O)CC(N3CCN(CCN=CC4=C(O)CC(C)(C)CC4=O)CC3)C2=O)cc1 (centres undefined),6.7,5.0,-1.3,0.683,4.3,8.3,0.0,6.6,nt,-0.5
C=CCn1c(SCC(=O)Nc2ccc(C(=O)OC(C)C)cc2)nnc1-c1cccs1,nt,nt,nt,0.773,-1.4,10.3,-1.0,10.3,nt,nt
COc1cc2c(C)nc3c(cnn3-c3ccccc3)c2cc1OC,2.5,16.2,4.6,0.716,-2.9,5.4,0.3,16.4,nt,-2.9
Cc1cccc(-n2c(C)c(C)c3c(N)ncnc32)c1,-2.0,-5.1,-1.7,0.631,-3.5,nt,-0.2,3.7,i,9.8
COc1ccc(O)c(/C=N/N=C2/C(=O)Nc3ccccc32)c1,-16.9,-6.7,3.7,nt,nt,-5.3,-0.1,-1.3,i,4.9
OCCN1CCN(CCSc2ccccc2)CC1,nt,nt,nt,0.652,1.5,0.4,0.2,14.2,nt,nt
Cc1ccc(S(=O)(=O)NCCSc2nnnn2-c2ccc(C(N)=O)cc2)cc1,5.8,-8.3,-0.2,0.739,7.5,-2.9,1.1,-1.6,i,-2.9
COc1ccc(CCNC(=S)Nc2ccccc2C)cc1,nt,nt,nt,0.768,3.0,-1.5,1.0,6.0,nt,nt
Cc1cc(NC(=O)c2ccc(N3C(=O)CCC3=O)cc2)no1,nt,nt,nt,0.731,0.1,-7.2,0.4,3.9,nt,nt
OC(COc1ccc(CNCc2cccnc2)cc1)CN1CCc2ccccc2C1 (centres undefined),7.6,0.3,-0.9,0.728,4.3,-3.0,0.4,?,i,4.0

# Additional structures follow.
SMILES,Ecoli rRNA inh,Ecoli rRNA inh OD600,Ecoli rRNA inh RFP,Ecoli growth,UCH37 inh,Beta apoptosis,Bfl-1 A1 inh,T cruzi repl,FGF22 binding,MLL AF4-AF9 inh
CN(C)NC(=O)C12CCC(C)(C(=O)O1)C2(C)C (centres undefined),6.5,-8.4,6.7,0.695,3.3,-2.5,0.5,-0.5,i,-3.1
CCOC(=O)c1[nH]c2ccccc2c1NC(=O)c1nonc1C,nt,nt,nt,0.707,4.1,0.5,1.2,-3.6,nt,nt
O=C(COc1ccccc1)NC(=S)Nc1ccc(Br)cn1,13.7,9.5,-0.7,0.656,1.2,-1.0,0.9,11.5,i,-2.3
COCCSc1ccccc1C(=O)Nc1ccc(Cl)cn1,nt,nt,nt,0.711,4.7,-3.0,0.0,28.5,i,-0.4
COc1ccc(NC(=O)Cc2coc3cc(C)ccc23)cc1S(=O)(=O)N1CCOCC1,nt,nt,nt,nt,0.1,-1.3,0.0,3.4,nt,nt
COc1ncccc1C(=O)NC1CCCc2c1cnn2-c1ccc(C)c(C)c1 (centres undefined),-15.8,-41.2,-5.7,0.705,1.9,nt,-2.3,2.2,i,-0.2
CCOC(=O)N1CCN(CC(=O)Nc2cc(C)nn2-c2nc3ccccc3s2)CC1,14.9,1.4,3.2,0.719,-2.2,-0.4,0.2,32.0,i,1.9
Cc1ccc(Oc2ncccc2NC(=O)CC(CC(=O)O)c2ccccc2)c2c1CCC2 (centres undefined),-7.0,-4.9,1.4,0.719,3.0,2.3,0.3,-18.9,i,-1.4
Nc1ccc2c(c1)C(=O)N(CCCCCC(=O)O)C2,nt,nt,nt,0.702,-28.3,0.7,0.4,12.8,nt,nt
Cc1cc(=O)oc2cc(NC(=O)CCCC(=O)O)ccc12,nt,nt,nt,0.733,-85.4,-4.2,0.2,-7.4,nt,nt
COc1cccc(CCNC(=O)C2CCC(=O)N(Cc3cccc(OC)c3)C2)c1 (centres undefined),-0.1,0.4,-0.2,0.703,1.8,-2.0,0.3,3.9,i,-1.2
Cc1cc2oc(=O)cc(CN3CCN(S(=O)(=O)c4ccc5c(c4)OCCO5)CC3)c2cc1C,nt,nt,nt,0.7,-0.1,7.6,-0.1,35.4,nt,nt
Cc1ccccc1-n1c(SCC(=O)NCc2cccs2)nnc1-c1ccncc1,nt,nt,nt,0.633,-2.4,3.0,-0.2,10.0,nt,nt
COc1ccc(-c2nnc(SCC(=O)c3ccc4c(c3)OCCO4)o2)cc1,nt,nt,nt,0.751,3.4,-1.2,-0.8,1.9,nt,nt
Cc1ccccc1-c1nnn(CC(=O)NC(=O)NC2CCCC2)n1,-29.1,-70.1,7.5,0.668,-0.1,-1.1,-1.4,nt,i,0.1
CCOc1ccc(S(=O)(=O)NC(C)C(=O)NCc2ccncc2)cc1 (centres undefined),11.1,15.9,0.8,0.619,-0.2,2.2,0.2,-11.2,i,-6.3
Cc1c(C(=O)N(C)C)sc(NC(=O)c2cc([N+](=O)[O-])cc([N+](=O)[O-])c2)c1C#N,7.7,5.5,-2.7,0.741,15.4,1.9,0.8,4.4,nt,nt
Cc1cccc(N/C=C/C(=O)c2ccc(Cl)cc2)c1,21.7,10.3,1.0,0.705,1.3,-1.3,-9.8,-7.1,i,-0.3
COC(=O)CCCNC(=O)CCc1nnc(-c2ccc(-c3ccccc3)cc2)o1,10.1,6.1,4.9,nt,nt,-7.9,-1.1,-16.9,i,-3.7
CC(=O)Nc1ccccc1-c1ccc(C)o1,nt,nt,nt,0.718,-1.4,-2.8,0.2,-3.3,nt,nt
OC(CNCc1ccc(F)cc1)(c1ccccc1)c1ccc(F)cc1 (centres undefined),nt,nt,nt,0.71,4.5,0.9,-0.4,-3.7,nt,nt
Cc1nc(N2CCCCC2)sc1C(=O)c1cccc([N+](=O)[O-])c1,-6.2,-7.5,-2.2,nt,nt,-8.9,-0.3,7.7,i,20.8
Cc1ccc(CNC(=O)Cn2cnc(C(=O)Nc3ccc(C)c(C)c3)n2)o1,-1.9,3.4,-0.7,0.692,-7.1,nt,nt,nt,i,-0.3
CC(=O)N1C(C)c2ccccc2C(C)(C)CC12CCCCC2 (centres undefined),nt,nt,nt,0.643,4.7,5.9,-0.4,28.4,nt,nt
O=C(NCC1CCCO1)c1ccc(-c2ccccc2Cl)o1 (centres undefined),-15.4,-20.9,1.2,0.613,0.8,nt,0.2,-5.8,i,-10.8

# (next part)
SMILES,Ecoli rRNA inh,Ecoli rRNA inh OD600,Ecoli rRNA inh RFP,Ecoli growth,UCH37 inh,Beta apoptosis,Bfl-1 A1 inh,T cruzi repl,FGF22 binding,MLL AF4-AF9 inh
N#CCC(=N)N1CCN(c2ccc(F)cc2)CC1,-12.4,-20.2,-1.2,0.66,1.9,6.0,0.0,4.3,i,4.2
Cc1ccc(/C=N/n2c(C)nc3ccccc3c2=O)o1,13.6,11.2,-0.6,nt,nt,3.8,0.9,-0.4,i,0.3
CN(C(=O)COC(=O)c1ccc(F)c(S(=O)(=O)N2CCOCC2)c1)C1CCS(=O)(=O)C1 (centres undefined),nt,nt,nt,0.722,2.0,-2.3,0.1,-6.0,nt,nt
COc1ccc(Nc2cc(C)c3c(O)cccc3n2)cc1,-6.4,-17.4,2.2,0.545,-14.2,1.9,-2.3,59.7*,i,14.7
CCOC(=O)NC(=S)Nc1cccc(NC(=S)NC(=O)OCC)c1,17.1,-0.2,2.4,0.705,3.4,nt,0.8,-15.1,i,-2.8
CC(C)c1ccc(NC(=O)CCNC(=O)N2CC(=O)Nc3ccccc32)cc1,3.7,12.0,1.0,0.689,9.1,-4.0,-0.1,-21.4,i,2.4
CC(C)CN(CC(C)C)C(=O)CN1C(=O)NC2(CCCc3ccccc32)C1=O (centres undefined),1.9,-4.9,-1.8,0.702,3.7,13.1,1.4,-1.9,i,-1.4
Fc1ccccc1/C=N/Nc1nc(N2CCCCC2)nc(N2CCCCC2)n1,17.1,17.2,2.9,nt,nt,nt,0.4,-8.9,i,2.0
Cc1ccc2nc3n(c(=O)c2c1)-c1ccc(Cl)cc1C(=O)NC3CC(C)C (centres undefined),nt,nt,nt,nt,nt,-4.9,-0.3,nt,i,4.5
CCOC(=O)C1(Cc2cccc(OC)c2)CCCN(C(=O)c2cc(C)oc2C)C1 (centres undefined),-5.0,-8.5,0.6,0.686,-3.1,-7.0,0.6,11.1,i,3.5
Cc1ccc(S(=O)(=O)N2CCn3cccc3C2C)cc1 (centres undefined),11.8,4.4,3.1,0.608,-0.8,0.8,0.5,nt,i,6.0
CCCCN(C(=O)CN1C(=O)C2CCCCC2C1=O)c1c(N)n(CCCC)c(=O)[nH]c1=O (centres undefined),15.5,20.6,0.4,0.664,-0.6,-2.3,0.4,-17.9,i,8.5

# Some of the compounds tested; rates above refer to the full screens.
